# Screens: PubChem BioAssay, National Center for Advancing Translational Sciences (NCATS)
# Lassa entry inh – blocks Lassa virus binding to or entry into cells; AID 540256; Potency, µM (top dose mostly 37.9 µM), for the others: at the highest dose activity change, negative = inhibition, hits mostly inhibitors; 1.2% of 300,000 active; Lassa virus pseudotype entry inhibition, cell reporter; control for the full effect not named in the record; active means well fitted inhibition curve with a large enough effect; inconclusive means small, poorly fitted or top-dose-only effect, or effect the other way; inactive means flat fitted curve, though single readings scatter; tested in HEK293 cells; note: % is set by controls: 0 for no effect and ±100 for the full control effect; nearly all actives have a fitted effect of over 50% in size; luciferase read-out
# NS1 inh – inhibitors of influenza NS1 protein function; Potency, µM (highest dose often 46.1 µM), for inactives: top-dose activity, positive = more growth; 0.4% of 270,000 active; S. cerevisiae slowed by influenza A NS1, growth recovery by OD600; active means well fitted rising curve with a large enough effect; inconclusive means small, poorly fitted or top-dose-only effect; inactive means no such curve, though single readings can be large or run the other way; note: nearly all actives have a fitted effect of over 50% in size
#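 Recovery from NS1-induced slow growth read by OD600 in budding yeast switched to galactose assay medium (pH 6.0, -URA) at 1:100 dilution. Compound 23 nl per well; the matching strain lacking NS1 serves as control.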
# SARS PLP yeast – blocks SARS-CoV papain-like protease in a yeast assay. S. cerevisiae expressing SARS-CoV PLpro, growth rescue; control for the full effect not named in the record. Potency, µM (top dose mostly 32.9 µM), for inactives: at the top dose activity, positive = growth rescue. 0.19% of 330,000 active. AID 485353; active means well fitted rising curve with a large enough effect; inconclusive means small, poorly fitted or top-dose-only effect; inactive means no such curve, though single readings can be large or run the other way; note: 0% is about no effect; nearly all actives have a fitted effect of over 55% in size; growth read by luminescence after 48 h
# StopGo reporter – lowers the luciferase signal of an FMDV 2A StopGo reporter; human cells with a luciferase reporter of 2A StopGo recoding; control for the full effect not named in the record; Potency, µM (highest dose often 57.9 µM), inactives show at the top dose signal change, negative = less light; 1.2% of 410,000 active; active = well fitted falling curve with a large enough effect; inconclusive = small, poorly fitted or top-dose-only effect; inactive = no such curve, though single readings can be large or run the other way; tested in HEK293T cells; note: % is set by controls: 0 for no effect and ±100 for the full control effect; nearly all actives have a fitted effect of over 45% in size; luciferase light after 4 h
# MARV entry inh – inhibitors of Marburg virus binding or cell entry; Marburg virus pseudotyped entry inhibition, cell reporter; control for the full effect not named in the record; about a third of the inactives were read at about 46 µM; Potency, µM (titrated, usually from 37.8 µM), for inactives: top-dose activity change, negative = inhibition, most hits filed as inhibitors; 1.8% of 300,000 active; AID 540276; active = well fitted inhibition curve with a large enough effect; inconclusive = small, poorly fitted or top-dose-only effect, or effect the other way; inactive = flat fitted curve, though single readings scatter; tested in HEK293 cells; about a fifth of its hits are not listed in these tables; note: % is set by controls: 0 for no effect and ±100 for the full control effect; luciferase read-out
# Cruzain Triton – cruzain (T. cruzi) inhibition with detergent; Potency, µM, for the others: max response, negative = inhibition, usual class: inhibitors; P25779; AID 1478; purified cruzain, Z-FR-AMC fluorescence, 0.01% Triton; 0.43% of 200,000 active;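 note: plate controls were neutral wells for no effect and buffer without enzyme for full effect; nearly all actives have a fitted effect of over 40% in size; top concentration of the series not given in the record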
# Target sequence (P25779 123-467 limits assumed): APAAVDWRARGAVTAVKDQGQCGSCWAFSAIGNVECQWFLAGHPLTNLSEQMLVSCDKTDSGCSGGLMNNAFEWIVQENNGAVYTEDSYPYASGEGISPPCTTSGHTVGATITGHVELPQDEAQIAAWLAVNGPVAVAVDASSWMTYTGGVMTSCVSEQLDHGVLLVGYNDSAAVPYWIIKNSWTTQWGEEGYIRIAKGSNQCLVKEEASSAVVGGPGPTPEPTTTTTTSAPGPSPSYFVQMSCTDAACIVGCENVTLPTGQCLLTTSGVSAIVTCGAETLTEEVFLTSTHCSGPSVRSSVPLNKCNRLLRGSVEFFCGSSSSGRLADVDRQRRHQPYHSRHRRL
#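 Read-out: AMC fluorescence (360 nm excitation, 450 nm emission), four reads over 2 min, first-to-third difference used. Conditions: cruzain 1.5 nM, Z-FR-AMC 2 uM, pH 5.5 acetate, 5 mM DTT, 0.01% Triton X-100.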
# RE007 growth inh – less growth of the S. pombe RE007 Vpr strain | S. pombe RE007 Vpr strain, BacTiter-Glo ATP luminescence, 24 h; control for the full effect not named in the record | 0.21% of 360,000 active | Potency, µM (top dose mostly 92.2 µM), without a hit: top-dose activity change, negative = less growth | AID 651644; active = well fitted falling curve with a large enough effect; inconclusive = small, poorly fitted or top-dose-only effect; inactive = no such curve, though single readings can be large or run the other way;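 note: % is set by controls: 0 for no effect and ±100 for the full control effect; nearly all actives have a fitted effect of over 50% in size; the assay follows cell death caused by Vpr and the record does not say whether a fall means rescue or toxicity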
#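 Fission yeast RE007 carrying one integrated HIV-1 vpr copy, seeded at OD 0.01 in PMG+AL medium with 23 nL pinned compound. Grown 24 h at 30 degrees; viability read by BacTiter-Glo luminescence after 5 min.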
# Cruzain noTriton – inhibitors of Trypanosoma cruzi cruzain without detergent; P25779; purified cruzain, Z-FR-AMC fluorescence, no detergent; Potency, µM, for inactives: max response, negative = inhibition, actives largely listed as inhibitors; 2.3% of 200,000 active; AID 1476;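 note: plate controls were enzyme without inhibitor for no effect and buffer without enzyme for full effect; nearly all actives have a fitted effect of over 40% in size; top concentration of the series not given in the record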
#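 Purified cruzain at 1.5 nM, pre-incubated 15 min with compound at room temperature in 100 mM sodium acetate pH 5.5, 5 mM DTT, 0.00005% Triton X-100. Reaction started with 2 uM Z-FR-AMC; AMC fluorescence increase over 60 s gives rate.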
# * = called active by the depositor; ? = inconclusive; / = no result given; & = joins results of further samples; [ ] = remark or other dose. Unless noted, calls come from the whole dose curve; as a rule, active = well fitted curve in the direction sought with a large enough effect; inconclusive = small, poorly fitted or top-dose-only effect, or another doubt; inactive = no such curve, though single readings can be large; an effect the other way counts as inactive or inconclusive. Potency is the fitted concentration of half-maximal effect.
SMILES,Lassa entry inh,NS1 inh,SARS PLP yeast,StopGo reporter,MARV entry inh,Cruzain Triton,RE007 growth inh,Cruzain noTriton
CN(Cc1ccccc1)C(=O)c1cc2c(s1)-c1ccc(Cl)cc1SC2,?,/,/,45.6%[activator],?,-9.6%,/,-29.9%
Cc1ccc(S(=O)(=O)NC(=O)COc2ccccc2)cc1,/,2.9%,-1.6%,-3.4%,/,/,8.4%,/
S=C(Nc1cccc(Cl)c1Cl)Nn1cnnc1,2.8%,-39.5%,-90.9%,-4.9%,4.2%,-6.7%,-6.4%,-4.9%
CCN(CC)CCNC(=O)c1cc(-c2cccnc2)nc2ccc(S(=O)(=O)N3CCC(C)CC3)cc12,/,6.3%,5.7%,6.4%,/,/,9.4%,/
O=C1OC(Cc2ccccn2)C(O)=C1C1=NCCCCN1 (stereo not drawn),?,-0.7%,-3.6%,28.4%,1.6%,-2.3%,-9.2%,-6.0%
Cc1ccc(Cn2nnc3c(=O)n(CC(=O)NCc4ccc5c(c4)OCO5)cnc32)cc1,-29.9%,1.2%,17.5%,/,?,-1.5%,12.2%,-3.2%
CC1CCN(C(=O)c2ccc(S(=O)(=O)N(C)C)cc2)C(C)C1 (stereo not drawn),-2.2%,-3.0%,10.8%,-18.5%,10.1%,3.6%,5.2%,7.2%
CS(=O)(=O)N(CC(=O)NC1CCCCC1)Cc1ccc(F)cc1,5.7%,1.8%,0.6%,-5.4%,-3.8%[46.1 µM],/,11.2%,/
COc1cccc(NC(=O)C2CCCN(S(=O)(=O)c3c(C)nn(C)c3C)C2)c1 (stereo not drawn),-3.3%[46.1 µM],/,/,-10.1%,-15.8%[46.1 µM],-1.0%,/,-4.7%
Cc1cc(C(=O)NC2CC(C)(C)Cc3c2cnn3-c2ccccc2)n(C)n1 (stereo not drawn),-2.0%,-30.1%,5.8%,?,?,/,2.6%,/
Cc1cc(C)n(CC(=O)N/N=C/c2cccc([N+](=O)[O-])c2)n1,20.9%,6.9%,-3.8%,-7.9%,5.5%,1.7%,-2.4%,18.9%
Cc1cc(C[n+]2ccccc2)c2nsnc2c1,0.1%,-5.5%,7.8%,/,9.6%,-1.6%,-10.6%,0.4%
O=C(c1ccc(F)cc1)c1ccc(-c2ccc(F)cc2)nc1,/,0.7%,0.5%,18.6%,/,/,13.9%,/
CCN(CCCNC(=O)CNC(=O)c1nn(-c2ccc(OC)cc2)c(=O)c2ccccc12)c1cccc(C)c1,-9.3%[46.1 µM],2.4%,0.7%,23.0%,?,/,-21.5%,/
CC(C)N1CC(O)=C(c2nc3ccccc3[nH]2)C1=N,?,-18.8%,1.3%,58.3%[activator],?,6.8%,1.4%,-14.2%
CCOC(=O)Cn1c2ccc(F)cc2c2nc(C)sc21,4.4%[46.1 µM],/,-3.8%,-14.1%,3.7%[46.1 µM],/,1.2%,/
Cc1ccc(-c2nc(CN3CCCCC3c3cccc(F)c3)c(C)o2)o1 (stereo not drawn),-8.6%,0.5%,-1.3%,-24.5%,-23.2%[46.1 µM],/,16.5%,/
CCOCCOC(=O)COC(=O)c1ccccc1NC(=O)c1ccccc1,11.9%,-9.4%,-0.2%,-14.5%,30.8%,-4.0%,-5.3%,4.7%
CC(C)=Cc1oc2ccc([N+](=O)[O-])cc2c1N1CCOCC1,7.5%[46.1 µM],-5.2%,0.3%,17.5%,?,/,-17.2%,/
C[C@H]1CCC2[C@](C)(CO)[C@@H](O)CC[C@]2(C)[C@@]12CCC(CO)(CCO)O2 (stereo partly drawn),-0.9%[46.1 µM],-0.2%,-2.2%,-15.2%,19.1%[46.1 µM],/,7.0%,/
CC(C)c1ccc(Nc2cc(C(=O)NCc3cccs3)c3ccccc3n2)cc1,21.5%[46.1 µM],/,/,-9.9%,-3.7%[46.1 µM],-2.9%,/,10µM*
C/C(=N\NS(=O)(=O)c1ccc(Cl)c([N+](=O)[O-])c1)c1cc2ccccc2o1,?,-11.7%,-3.8%,21.8%,-11.8%,-24.5%,-23.5%,-15.3%
Cc1sc[n+](CC(=O)c2ccc(Br)cc2)c1C,/,-11.4%,8.4%,-22.5%,/,/,-12.0%,/
COc1cc(NC(=O)Cn2c(=O)n(CC3CCCO3)c(=O)c3ccccc32)cc(OC)c1 (stereo not drawn),0.2%[46.1 µM],/,0.2%,-21.7%&-17.5%,-2.8%&-2.8%[46.1 µM],2.8%,28.1%,21.3%
CN(C)S(=O)(=O)c1ccc(-n2cccc2)cc1,-1.4%[46.1 µM],1.2%,0.2%,14.7%,6.2%[46.1 µM],/,-13.2%,/
CCN1C(=O)[C@@H]2[C@H](C1=O)[C@@H]1C(=O)Nc3ccccc3C(=O)N1[C@@H]2c1cccc(Cl)c1,/,10.3%,1.8%,-1.1%,/,/,2.2%,/
CC1CCC(C(C)C)C(OC(=O)CSc2nccc(=O)[nH]2)C1 (stereo not drawn),-4.4%,-54.0%,7.1%,-13.2%,0.7%,-3.3%,-15.1%,-6.6%
CCCCNc1ncnc2[nH]ncc12,-4.9%,/,/,-25.8%,5.1%,/,25.7%,/
Cc1[nH]c(=O)[nH]c(=O)c1S(=O)(=O)N1CCCc2ccccc21,/,1.6%,7.9%,-9.5%,/,/,-7.6%,/
Cc1sc2nc(C(C)C)nc(SCC(=O)N3CCN(C(=O)c4ccco4)CC3)c2c1C,-16.5%,-64.7%,15.0%,?,6.0%&7.4%,-11.9%,5.0%,?
O=C(COc1ccccc1Br)N1CCN(c2ccccc2)CC1,-0.7%,-10.9%,-5.2%,20.5%,-18.3%,-1.6%,-5.5%,-8.7%
N#C/C(=C(/O)CN1CCN(c2ccccc2F)CC1)c1nc(-c2ccc(Cl)cc2)cs1,12.3%,8.0%,1.3%,/,-9.5%,7.0%,-12.8%,?
CCN(Cc1ccccc1)Cc1c(O)ccc2c(=O)c(-c3ccccc3OC)c(C(F)(F)F)oc12,16.0%[46.1 µM],/,/,-17.9%,-7.1%[46.1 µM],-10.3%,/,-4.6%
Cc1ccc(-n2c(=O)[nH]c3c(C(N)=O)nc(C(C)C)nc32)cc1,9.3%[46.1 µM],7.6%,-1.3%,-6.5%,?,/,4.8%,/
COc1ccccc1Nc1nc2ccccc2n2cnnc12,/,2.6%,1.2%,0.4%,/,/,-4.0%,/
O=C(OCC(O)COc1ccccc1)c1ccc([N+](=O)[O-])cc1 (stereo not drawn),/,-6.2%,0.6%,-5.9%,/,/,-10.9%,/
CCOC(=O)c1c(S(=O)(=O)NCC(=O)N2CCN(c3ccccc3OC)CC2)c(C)n(C)c1C,-22.2%[46.1 µM],-3.7%,1.9%,-10.1%&-21.1%,/,1.4%,-4.3%,?
COc1cc(Cl)c(C)cc1NC(=O)CCN1C(=O)NC(C)(C)C1=O,-0.8%,/,1.7%,-13.3%,15.5%[46.1 µM],/,1.8%,/
CC(=O)N(C)c1ccc(OCC(O)CN(Cc2ccco2)S(=O)(=O)c2ccc(C)cc2)cc1 (stereo not drawn),-15.9%,-12.4%,/,?,0.0%,-1.3%,0.8%,?
O=C(COC(=O)CCc1nc2ccccc2c(=O)[nH]1)Nc1ccccc1Cl,/,6.2%,0.7%,-15.6%,/,/,17.4%,/
Cc1ccc(C(=O)NCC(=O)NCC(=O)OCc2ccc(Oc3ccc([N+](=O)[O-])cc3)cc2)cc1,-10.4%,/,/,?,-19.7%,/,-5.0%,/
CCOC(=O)c1ccc(Oc2nc(N(C)C)nc(N3CCOCC3)n2)cc1,/,-4.6%,-0.8%,0.0%,/,/,-6.6%,/
Cc1cc(C)c(S(=O)(=O)c2ccccc2C)c(Oc2ccccc2)n1,3.5%,-17.1%,8.3%,24.5%,-21.9%,-3.8%,10.0%,-6.2%
CN(C)Cc1c(C(=O)N/N=C/c2ccc(OCc3c(F)cccc3Cl)cc2)nnn1-c1nonc1N,-29.2%[46.1 µM],-13.1%,-2.7%,-29.7%,?,/,-24.3%,/
Cc1ccccc1C(=O)N1CCC(C(=O)NC2CCCCCC2)CC1,?,-0.1%,-0.3%,6.5%,0.5%[46.1 µM],/,-3.9%,/
CCN(CC)C(=O)C1=C(C)NC(=S)NC1c1ccc(C)s1 (stereo not drawn),-2.3%,/,0.0%,-12.8%,14.6%[46.1 µM],/,167.0%,/
COc1ccc(C(=O)O/N=C(\N)c2ccncc2)cc1OC,?,-3.7%,0.9%,3.2%,?,-1.2%,5.7%,-0.4%
O=C1CSC2(C(=O)N(Cc3ccccc3)c3ccccc32)N1c1cccc(F)c1 (stereo not drawn),-22.6%[46.1 µM],/,/,?,/,-8.3%,/,2.6%
COc1ccc(CCNC(=O)CN2CCN(c3ccccc3Cl)CC2)cc1,-21.1%,-24.3%,-1.2%,-15.8%,4.7%,2.3%,-0.8%,1.7%
COC(=O)c1sccc1S(=O)(=O)N(CC(=O)Nc1cc(C)cc(C)c1)c1ccc(Cl)cc1,-19.4%[46.1 µM],/,/,-19.8%,/,-6.7%,/,?
Cc1nnc(SCC(=O)NCc2ccc(N(C)C)cc2)c2nn(-c3ccccc3)c(C)c12,-6.7%[46.1 µM],/,/,-20.8%,/,-7.1%,/,8.5%
Cc1cccc(Cn2c(N3CCN(C)CC3)nc3c2c(=O)[nH]c(=O)n3C)c1,1.1%,16.4%,1.4%,-8.1%,-17.7%,/,3.4%,/
Fc1ccc(-c2nn(-c3ccccc3Cl)c3c2cnc2ccccc23)cc1,3.2%[46.1 µM],/,/,?,/,-2.2%,/,4.6%
CC(=O)c1c(C)[nH]c(C(=O)OCC(=O)Nc2ccc(C)cc2[N+](=O)[O-])c1C,3.1%,25.2%,-7.5%,5.01µM*,?,-6.2%,0.7%,4.8%
Cc1ccc(C(=O)Cn2cncn2)cc1,-14.5%,11.2%,0.7%,13.4%,-0.9%,/,-2.0%,/
Nc1nnc(N)c2ccccc12,8.6%,/,1.3%,-18.9%,-19.8%[46.1 µM],/,45.8%,/

# An unsorted share of the library, and some 4.5% of all compounds hit somewhere here.
